High-throughput results (PubChem BioAssay)
D2 potentiator: human D2 receptor positive allosteric modulation | DiscoveRx D2 beta-arrestin cells, luminescence, 90 min; 100% = 57 uM dopamine signal | P14416 | hit rate 0.23% among 360,000 | potentiation, % (test concentration not listed) | AID 624464; active = potentiation of 50% or more; inconclusive = 30% to 50%; inactive = 30% or less;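 also: compound concentration not given in the record; tested on top of an EC20 dose of dopamine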
Target sequence (P14416 whole entry, looked up): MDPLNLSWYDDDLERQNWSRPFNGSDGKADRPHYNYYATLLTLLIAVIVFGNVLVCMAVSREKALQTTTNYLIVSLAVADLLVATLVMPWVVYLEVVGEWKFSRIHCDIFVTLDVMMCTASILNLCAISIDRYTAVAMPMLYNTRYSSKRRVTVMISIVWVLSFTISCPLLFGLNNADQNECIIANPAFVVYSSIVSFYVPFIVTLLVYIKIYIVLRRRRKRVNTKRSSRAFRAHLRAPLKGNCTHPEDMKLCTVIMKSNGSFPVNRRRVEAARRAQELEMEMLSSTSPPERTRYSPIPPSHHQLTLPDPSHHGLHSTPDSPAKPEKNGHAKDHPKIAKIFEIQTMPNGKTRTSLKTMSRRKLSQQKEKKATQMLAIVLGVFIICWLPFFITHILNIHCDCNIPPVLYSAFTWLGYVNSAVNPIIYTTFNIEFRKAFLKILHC
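PathHunter D2 cells, attached overnight at 37 deg C, received compound in DMSO plus dopamine at EC20 (50 nM final) for 90 min at 37 deg C. Beta-arrestin recruitment was read as luminescence after 1 h with detection reagent at ambient temperature.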
TRPML1 blocker: inhibitors of human TRPML1 channel. Q9GZU1. TRPML1-inducible cells, Ca2+ dye fluorescence, FDSS; hits give low values; inhibition of EC80 agonist-evoked calcium signal. activity change, negative = inhibition, % (test concentration not listed). hit rate 0.02% among 390,000. AID 624415; in the data active means activity change below about -50%; inconclusive means about -30% to -50%; inactive means above about -30%;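 also: stimulus is agonist 54-4 at its EC80 concentration; % is scaled to controls: 0 for no effect and ±100 for the full control effect; compound concentration not given in the record; the text of the record puts the active cut at -80%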
Target sequence (Q9GZU1 whole entry, looked up): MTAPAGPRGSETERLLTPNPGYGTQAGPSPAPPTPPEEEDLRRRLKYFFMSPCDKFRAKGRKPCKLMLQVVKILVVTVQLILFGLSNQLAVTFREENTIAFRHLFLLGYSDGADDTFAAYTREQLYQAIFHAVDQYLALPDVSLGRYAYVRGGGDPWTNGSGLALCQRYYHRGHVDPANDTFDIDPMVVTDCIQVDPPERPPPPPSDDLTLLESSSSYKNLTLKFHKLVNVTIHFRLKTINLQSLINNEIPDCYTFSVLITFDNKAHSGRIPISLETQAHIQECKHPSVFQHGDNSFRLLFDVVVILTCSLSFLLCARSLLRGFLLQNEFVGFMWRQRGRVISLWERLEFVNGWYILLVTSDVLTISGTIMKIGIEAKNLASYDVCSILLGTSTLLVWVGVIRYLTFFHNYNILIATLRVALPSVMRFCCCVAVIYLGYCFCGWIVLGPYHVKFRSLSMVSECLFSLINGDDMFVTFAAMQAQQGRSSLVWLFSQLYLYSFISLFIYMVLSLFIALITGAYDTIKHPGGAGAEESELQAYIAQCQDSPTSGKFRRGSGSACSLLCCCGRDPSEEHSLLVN
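Tet-induced TRPML1-DL cells loaded with Ca8 no-wash calcium dye were read kinetically on FDSS. Compound addition was followed by EC80 agonist 54-4 (4 uM final); inhibition was read over 110 s.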
TRPML1 ag: activates the human TRPML1 channel. TRPML1-expressing cells, Ca2+ dye fluorescence, FDSS; host cell line not named in the record; reference of the full effect not given here. Q9GZU1. activation, % (concentration not given with the values). hit rate 0.12% among 410,000; in the data active = activation above about 50%; inconclusive = about 30% to 50%; inactive = below about 30%; also: 0% is about no effect; the text of the record puts the active cut at 80%
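Calcium fluorescence on an FDSS kinetic reader gave the read-out. Tet-induced TRPML1-DL cells were plated overnight, dye-loaded (Ca8 with quencher, 45-90 min, room temperature, dark), then read 110 s after compound addition, and again 110 s after 4uM final 54-4 (EC80).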
PINK1 expr mod: PINK1 expression modulation; PINK1 immunofluorescence, high-content cytometry, 24 h; Potency, µM (highest dose often 76.6 µM), for inactives: at the top dose activation (PINK1 increase), hits mostly activators; hit rate 0.2% among 410,000; active = well fitted activation curve with a large enough effect; inconclusive = small, poorly fitted or top-dose-only effect; inactive = flat fitted curve, though single readings scatter; cell line not stated here;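 also: potency is read from the fitted curve at half-maximal effect; % of control where 0% means no effect; nearly all actives have a fitted effect of over 65% in size; a mitochondrial uncoupler was the plate control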
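PINK1 protein level read as immunofluorescence by microplate cytometer in a fixed, stained stable cell line after 24 h exposure to five compound concentrations, with CCCP as control.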
Six1-Eya2 inh: Six1/Eya2 interaction inhibition. Q15475+O00167. AlphaScreen GST-Six1/His-Eya2 binding, biochemical; hits give low values; control for the full effect not named in the record. activity change, % (test concentration not listed). hit rate 0.56% among 360,000; in the data active = activity change below about -65%; inconclusive = about -30% to -65%; inactive = above about -30%; also: % is scaled to controls: 0 for no effect and ±100 for the full control effect; compound concentration not given in the record
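Homogeneous AlphaScreen proximity assay pairing GST-Six1 with His-tagged Eya2 (added as 5X mix: 250 nM and 500 nM) in 50 mM Tris pH 8.0, 300 mM NaCl, 1 mM TCEP. Glutathione donor and nickel acceptor beads; 1 h, 37 °C, dark.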
D2 ag: agonists of human D2 dopamine receptor (beta-arrestin). P14416. DiscoveRx PathHunter D2 beta-arrestin, luminescence, 90 min; 100% = 57 uM dopamine signal. activation, % (concentration not given with the values). hit rate 0.084% among 360,000; in the data active = activation above about 40%; inconclusive = about 15% to 40%; inactive = below about 15%; also: compound concentration not given in the record; the text of the record calls up to 30% inactive
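DiscoveRx PathHunter D2 beta-arrestin cells (2,100/well) attached overnight, then compound-stimulated 90 min at 37 C in HBSS/10 mM HEPES/0.1% Tween-20 buffer; beta-galactosidase complementation read by luminescence after 1 h at ambient temperature. Dopamine 57 uM final (EC100) as control.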
An asterisk follows results filed as active; ? = inconclusive; · = no result given; [ ] = another dose, or the depositor's remark. The order is random (roughly 1% active in at least one column).

Molecule	D2 potentiator	TRPML1 blocker	TRPML1 ag	PINK1 expr mod	Six1-Eya2 inh	D2 ag
C=CCCN([C@H](CO)Cc1ccccc1)S(=O)(=O)c1ccccc1Br	-1	-6	0.9	1.2%	35	0.9
CCOC(=O)c1[nH]c2ccccc2c1NC(=S)Nc1ccccc1C	-3	-1	0.2	-1.0%	1	-0.6
Cc1ccc(NC(=S)N2CCn3cccc3C2c2cccnc2)cc1 (stereo unspecified)	-5	7	0.6	4.3%	-14	5.3
Cn1nc(C(=O)NCc2ccccc2)cc1C(=O)NCc1ccccc1	-14	9	0.0	-1.1%	-15	-3.6
COc1cccc(-n2c(SCC(=O)NC(C)(C)C)nnc2-c2ccoc2C)c1	7	-3	-0.5	-0.4%	-3	0.5
Cc1noc2ncnc(NCCc3ccccc3)c12	·	27	1.5	-0.1%	·	·
Cc1nc2c(OCc3ccc(OC(F)F)cc3)cccn2c1N(C)C(=O)CCC1CCCC1	9	·	-0.5	7.8%	-9	8.0
Cc1ccc(-c2nnn(CC(=O)N(c3ccccc3)C(C(=O)NCC3CCCO3)c3ccc(F)cc3)n2)o1 (stereo unspecified)	-7	9	0.2	1.9%	7	-2.5
CCCC(=O)c1cc(F)c(N2CCOCC2)cc1C	2	-1	0.3	-1.1%[38.3 µM]	8	-0.9
CCCOc1ccc(N2C(=O)CC(NCc3ccncc3)C2=O)cc1 (stereo unspecified)	-5	-9	-0.4	-1.5%	-19	-3.5
CC(C)(C)c1ccc(OCC(=O)NCCN2CCCC2)cc1	-27	31	1.1	0.2%	0	-2.1
O=C(NCc1ccc2c(c1)OCO2)c1nnc(Cc2ccc(Cl)cc2)o1	-4	-10	1.3	6.0%	5	-6.4
O=C(c1ccccc1-c1ncc[nH]1)N1CCCC(Nc2ccc(F)cc2)C1 (stereo unspecified)	-10	-14	-0.1	0.6%	-15	-0.7
CC(C)(C)C(=O)Nc1sc(-c2ccccc2)cc1C(=O)O	5	-6	1.3	-1.7%	3	2.4
O=C(C[C@H]1C[C@H](C(=O)N2CCCCC2)[C@@]2(CCc3ccccc3)c3[nH]c4ccc(Cl)cc4c3CCN2C1=O)NCCN1CCOCC1	-8	-6	-0.6	0.8%	-3	-4.5
Cc1cccc(C2CC(c3ccc(Cl)cc3)Nc3nc(N)nn32)c1 (stereo unspecified)	-4	-23	0.4	-1.8%	-2	-1.4
CCOc1ccc(S(=O)(=O)N2CCCCC2)cc1NC(=O)Cc1cccs1	5	61	3.1	5.3%	3	-0.1
CCOc1ccccc1NCc1nnc(-c2ccccc2)o1	-4	-14	0.6	1.3%	0	-4.0
CCc1ccc(NC(=O)CCn2c(=O)oc3ccccc32)cc1	-15	-9	7.2	-0.4%	6	-2.6
CC(C)CN(C(=O)COC(=O)c1ccc(Cl)c(N)c1)c1c(N)n(Cc2ccccc2)c(=O)[nH]c1=O	-1	2	-0.8	-0.6%	-3	-2.0

Compound profiles, from the list above. Order of screens: D2 potentiator, TRPML1 blocker, TRPML1 ag, PINK1 expr mod, Six1-Eya2 inh, D2 ag
Shown for CCOC(=O)c1[nH]c2ccccc2c1NC(=S)Nc1ccccc1C → -3, -1, 0.2, -1.0%, 1, -0.6
Shown for CCc1ccc(NC(=O)CCn2c(=O)oc3ccccc32)cc1 → -15, -9, 7.2, -0.4%, 6, -2.6
Shown for Cn1nc(C(=O)NCc2ccccc2)cc1C(=O)NCc1ccccc1 → -14, 9, 0.0, -1.1%, -15, -3.6
Shown for CC(C)CN(C(=O)COC(=O)c1ccc(Cl)c(N)c1)c1c(N)n(Cc2ccccc2)c(=O)[nH]c1=O → -1, 2, -0.8, -0.6%, -3, -2.0

Further compounds follow.
Molecule	D2 potentiator	TRPML1 blocker	TRPML1 ag	PINK1 expr mod	Six1-Eya2 inh	D2 ag
CCSC1=NCCN1C(=O)c1ccc(S(=O)(=O)N(C)C)cc1	1	7	-0.2	-0.5%	8	-1.6
COc1ccc(Nc2ncc3c(n2)CCN(Cc2cc(Br)cs2)C3)c(OC)c1	·	-16	1.9	1.3%	·	·
O=C(c1cc(-c2ccc(Cl)cc2)on1)N1CCc2ccccc2C1	0	15	-1.2	9.8%	14	-5.2
O=C(Nc1ccc(N2CCCC2)cc1)c1cc(Br)ccc1Cl	-3	10	0.3	6.7%	-17	-0.8
Cc1ccc(NC(=S)N2CCC(c3ccccc3)C2)c(Cl)c1 (stereo unspecified)	-7	-8	2.0	0.4%	4	-2.9
Nc1nc(SCC(=O)Nc2ccccc2-c2ccccc2)n[nH]1	10	1	-0.7	-1.4%[38.3 µM]	4	-1.5
CS(=O)(=O)c1nc([N+](=O)[O-])nn1CCCc1ccccc1	18	11	2.0	0.2%	-1	-5.9
CCN(CC)Cc1c[nH]c2c(C(=O)OC)cccc12	-9	-1	-0.4	0.7%	3	-3.8
CCOC(=O)CN1C(=O)S/C(=C/c2ccc(O)c([N+](=O)[O-])c2)C1=O	-12	6	-0.3	0.2%	-12	-7.7
CCCCC(=O)N(c1ccc2oc(C)c(C(C)=O)c2c1)S(=O)(=O)c1ccc(F)cc1C	·	-15	0.2	1.6%	·	·
CC(=O)Nc1ccc(S(=O)(=O)Nc2c(NC3CCCCC3)c3ccccc3oc2=O)cc1	-5	11	-0.5	3.0%	2	0.7
Cc1ccc(NC(=O)OCc2ccccc2S(C)=O)cc1 (stereo unspecified)	-4	-3	1.3	2.0%	6	6.9
O=C(CNC(=O)c1ccc(Br)cc1)N/N=C/c1ccc[nH]1	-31	36	2.3	4.0%	-7	-2.6
COc1cc(/C=C/C(=O)OCC(=O)Nc2ccc(NC(C)=O)cc2)cc(S(=O)(=O)N2CCc3ccccc32)c1OC	-3	-9	-0.2	-0.3%	-10	-0.2
COc1ccc(S(=O)(=O)NNC(=O)C2COc3ccccc3O2)cc1[N+](=O)[O-] (stereo unspecified)	-13	5	0.5	-2.5%	-3	-2.3
CC(C)N(Cc1nnc(-c2ccccc2Br)o1)C(=O)c1cc(Cl)nc2ccccc12	4	-5	3.1	-1.3%	-2	8.5
CN(Cc1ccccc1)C(=O)c1cccc(NC(=O)Cc2ccc(NC(=O)C3CCN(C(=O)c4ccccc4)CC3)cc2)c1	3	29	0.8	0.6%	2	4.2
COc1cccc(CNc2nc3c(-c4ccccc4)nnn3c3ccccc23)c1	·	-16	-0.5	1.6%	·	·
Cc1ccc(-n2nnnc2SCC(=O)N2Cc3ccccc3CC2C(=O)O)cc1 (stereo unspecified)	-5	-13	-0.2	-1.2%	0	-2.7
O=C(COc1ccc(Cl)cc1)c1ccc(O)cc1O	-4	-2	3.5	0.2%	-24	-7.0

Some entries already given with just Six1-Eya2 inh.
SMILES	Six1-Eya2 inh
COc1cc(/C=C/C(=O)OCC(=O)Nc2ccc(NC(C)=O)cc2)cc(S(=O)(=O)N2CCc3ccccc32)c1OC	-10
COc1ccc(S(=O)(=O)NNC(=O)C2COc3ccccc3O2)cc1[N+](=O)[O-] (stereo unspecified)	-3

Next section.
Molecule	D2 potentiator	TRPML1 blocker	TRPML1 ag	PINK1 expr mod	Six1-Eya2 inh	D2 ag
COc1ccc(NC(=O)Nc2nnc(Cc3ccc(OC)c(OC)c3)s2)cc1	-2	-2	0.4	2.4%	-1	3.3
CCC(Sc1nc(C)cc(C)n1)C(=O)Nc1ccc(S(N)(=O)=O)cc1 (stereo unspecified)	-1	0	-1.1	-0.7%	-3	3.9
Cc1noc(C)c1NC(=O)Nc1cccc2c1O[C@H](CN(C)S(=O)(=O)c1ccccc1)[C@@H](C)CN([C@H](C)CO)C2=O	4	11	-0.4	1.5%	1	-0.8
COCCCNC(=O)CCc1ccc(S(=O)(=O)Nc2ccc(C)cc2)cc1	1	0	-0.1	4.9%[38.3 µM]	5	-2.2
O=C(N/N=C/c1ccc(Br)s1)c1c[nH]c2ccccc12	-29	4	1.8	5.3%	-9	-4.7
Cc1ccc(CNC(=O)c2ccc(NC(=O)CCS(=O)(=O)c3cccs3)cc2)cc1	-2	12	0.0	14%	7	-1.3
Clc1ccc(Cl)c(OCCN2CCCC2)c1	-5	-2	0.1	0.2%	3	4.4
O=C(c1ccc2ccccc2n1)N1CCN(c2ccccc2)CC1	-6	-6	0.2	-0.8%[38.3 µM]	-3	1.4
COCCN(C(=O)C(C)C)c1nnc(-c2ccc(C)cc2)s1	2	16	2.1	0.2%	-2	-1.3
CCOC(=O)c1ccccc1NC(=O)COC(=O)CSCC(=O)Nc1cc(C)on1	-17	?	1.9	0.7%	3	-5.0
O=C(Cc1ccccc1)Nc1ccc(NC(=O)c2ccccc2)nc1	3	3	-1.2	4.7%	-1	-2.5
COc1cccc(/C(O)=C/c2nc3ccc(C(=O)NCCc4ccc(Cl)cc4)cc3[nH]c2=O)c1	0	-14	3.8	1.0%	6	1.4
CC(C)c1nn2c(=O)cc(COC(=O)c3cccs3)nc2s1	·	-19	-0.7	1.0%	·	·
CC1CCN(C(=S)Nc2ccc(SC(F)F)cc2)CC1	1	1	-0.2	2.3%	17	-4.6
Cc1ccnc(NS(=O)(=O)c2ccc(N3C(=O)c4ccccc4C3=O)cc2)n1	-14	12	1.8	1.0%	19	-4.6
O=C(Nc1ccc(C(F)(F)F)cc1)c1cc(S(=O)(=O)N2CCCc3ccccc32)ccc1F	·	2	0.2	2.0%	·	·
COC(=O)Cc1c(O)ccn(Cc2ccc3c(c2)OCO3)c1=O	0	-16	-1.0	5.9%	3	-2.3
N#CC1=C(S)N(c2ccccc2)C(c2ccc(-c3ccc(Cl)c(Cl)c3)o2)NC1=O (stereo unspecified)	-7	3	-0.7	2.0%	4	-3.4
O=C(c1cccs1)N1CCC(N2CCN(c3ccccc3)CC2)CC1	1	3	0.4	-0.7%	3	?
O=C1CC[C@@H]2CC3(C[C@@H]4CCN1[C@H]24)Nc1cc(Cl)ccc1NC3=NC1CCCCC1 (stereo partly specified)	-99	-17	-0.2	2.3%	2	4.9
COc1ccc2[nH]c(C)c(CCN(Cc3cccs3)C(=S)Nc3cccc(F)c3)c2c1	2	17	1.9	2.8%	-18	9.8
CCN(C(=O)CSc1nc2n[nH]c(C)c2c(=N)n1-c1ccc(Cl)c(C)c1)c1cccc(C)c1	-8	-7	5.0	-1.2%	-11	1.2
CCOc1ccc(Nc2ccnc3cc(Cl)ccc23)cc1	-17	-13	0.2	4.5%	3	-1.9
CCOc1cc2c(cc1/C=C/c1noc(C)c1[N+](=O)[O-])OC(C)C2 (stereo unspecified)	-6	-8	0.6	?	2	-5.8
COc1ccc(OC)c(NC(=O)C(C)n2c(=O)c(-c3ccccc3NC(C)=O)nc3ccccc32)c1 (stereo unspecified)	·	6	1.3	3.5%	·	·
